AmpC nodet inh – blocks E. coli AmpC beta-lactamase in absence of detergent; P00811; AmpC nitrocefin hydrolysis, absorbance 480 nm, no detergent; potencies from a single point are estimates; Potency, µM (highest dose often 28.7 µM), for inactives: at the highest dose activity change, negative = inhibition; actives 1.8% (n = 71,000); AID 585; active = falling curve, for most hits resting on a single point; inconclusive = weak or doubtful change; inactive = flat or rising curve; further: % of control where 0% means no effect; about half of the hits show no inhibition at the top dose; a quarter of the inactives give rising signals
Target sequence (P00811 whole entry, looked up): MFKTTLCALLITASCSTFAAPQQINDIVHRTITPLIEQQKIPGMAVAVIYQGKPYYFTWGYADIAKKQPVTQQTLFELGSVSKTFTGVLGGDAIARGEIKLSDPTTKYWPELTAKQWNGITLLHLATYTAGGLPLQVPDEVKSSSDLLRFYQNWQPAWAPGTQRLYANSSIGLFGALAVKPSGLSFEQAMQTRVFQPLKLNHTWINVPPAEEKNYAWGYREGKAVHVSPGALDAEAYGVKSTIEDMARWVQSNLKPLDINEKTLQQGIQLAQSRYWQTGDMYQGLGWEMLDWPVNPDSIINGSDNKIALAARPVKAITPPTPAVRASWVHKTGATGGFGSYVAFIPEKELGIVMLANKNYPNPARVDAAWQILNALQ
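Enzyme, pH 7.0 phosphate. Compound titrations were pre-incubated with AmpC for 15 min at room temperature before nitrocefin (stock 800 uM) addition; product formation was recorded at 480 nm every 20 s for 4 min.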
* hit, by the source's call; ? = inconclusive; [ ] = dose if it differs, or a comment. Potency means the concentration at half of the fitted maximal effect. This is a subset, so the mix of outcomes need not match the whole.

SMILES	AmpC nodet inh
CCn1cc(C(=O)NCc2cccs2)c(=O)c2cc(S(=O)(=O)N3CCOCC3)ccc21	83%
CCOC(=O)N1CCN(S(=O)(=O)c2ccc3c(c2)CCN3C(=O)CC)CC1	50%
O=c1c2c3nc4ccccc4nc3n(Cc3ccccc3)c2ncn1Cc1ccco1	59%
COc1cccc(N2CCN(CC(=O)NCc3cccs3)CC2)c1	48%
CCOc1ccc(CCNC(=O)Cc2nn[nH]n2)cc1OCC	0%
O=C(O)CNC(=O)c1ccc(CO)o1	1%
O=C(CN1C(=O)c2ccccc2C1=O)N1CCCCC1	-3%
COC(=O)c1c(C)oc2cc(Br)c(OCC(=O)C(C)(C)C)cc12	-5%
Cn1c2c(c3ccccc31)CCSC2=O	-9%
Cc1noc(C)c1C(=O)N1CCC2(CCCN(Cc3ccc(C#N)cc3)C2)CC1	19%
CCCn1c(SC2C(=O)CC(C)(C)CC2=O)nc2c1c(=O)n(C)c(=O)n2C	9%
CCOc1ccc(OCC)c(NC(=O)CCCN2C(=O)c3cccnc3C2=O)c1	17%
COc1cccc(C(=O)CSc2nnnn2C)c1	-8%
COc1ccc2[nH]c(C)c(CCN3C(=O)C4C5C=CC(C5)C4C3=O)c2c1 (stereo unspecified)	19%
Cc1ccc2c(c1)-c1c(cnn1CC(=O)Nc1ccccc1N1CCN(C)CC1)CO2	117%
Clc1ccc([C@@H]2C[C@H]3CC[C@@H]2N3)cn1	3%
COc1cccc(-c2nn(C)c3sc(C(=O)Nc4ccc5c(c4)OCCO5)cc23)c1	30%
NC(=O)c1cc[n+](CC2=C(C(=O)[O-])N3C(=O)[C@@H](NC(=O)Cc4cccs4)[C@@H]3SC2)cc1	-10%[12.8 µM]
Cc1noc(C)c1CN1C(=O)NC(Cc2ccccc2)(Cc2ccccc2)C1=O	17%
COc1cc2c(cc1NC(=O)CSc1nnc(Cc3cccs3)n1C)oc1ccccc12	114%
O=c1cccc2n1CC1CC2CN(C(c2cccc(F)c2)c2sc3ncnn3c2O)C1 (stereo unspecified)	23%
COc1cc(C(=O)N(C)c2nnc(-c3cccnc3)s2)cc(OC)c1OC	58%
COC(=O)c1cccc(COC(=O)CNC(=O)c2ccco2)c1	-1%
Cc1c(NC(=O)C2CCCN2S(=O)(=O)c2ccc(Cl)cc2)c(=O)n(-c2ccccc2)n1C (stereo unspecified)	21%
O=C(Nc1ccc2oc(Cc3ccc(Cl)cc3)nc2c1)c1cccnc1	104%
Cc1cc(C(=O)Nc2sc(C)c(-c3ccc(F)cc3)c2C(N)=O)no1	4%
CN(C)/C=N/c1c(C(=O)NCc2ccccc2)nnn1Cc1ccccc1	1%
CCc1c(C(=O)NC2CCCCC2)[nH]c(C)c1C(C)=O	-16%
COc1cccc(C(=O)NCCN2CCN(c3ccc(Cl)cc3)CC2)c1	47%
CCCCN(C)S(=O)(=O)c1ccc(C(=O)Nc2nnc(CSC)o2)cc1	-3%
CC(C)Cn1cc(C(=O)N2CCN(c3ccccn3)CC2)c2c3ccccc3n(C)c2c1=O	139%
O=C(Nc1ccc(F)c(F)c1)c1cccnc1	-3%
O=c1c(CCc2ccccc2)nc2cncnc2n1Cc1ccccc1Cl	8%
Cc1cc(=O)oc2cc(O)cc(O)c12	-16%
O=C(O)CCCC(=O)N(Cc1ccccc1)Cc1ccccc1	13%
CC(C)Oc1ccc(C(=O)N2CCCc3ccccc32)cc1	42%
O=c1[nH]c(=S)[nH]nc1Cc1ccccc1	-9%
NC(=O)c1ccccc1NC(=O)c1ccccc1F	-11%
CC(C)c1c(CN(C)[C@@H](C)Cc2ccccc2)n(C)n(-c2ccccc2)c1=O	13%[12.8 µM]
O=C(c1ccco1)N1CCN(c2nc(C(F)(F)F)nc3c2nnn3Cc2ccccc2)CC1	63%
CC1(C)CC(=O)N(CC(=O)O)c2ccccc2S1	4%
Cn1c(NCc2ccccc2Cl)nc2ccccc21	4µM*[single pt active]
COc1ccc(OC)c(C(=O)Cn2nnc3ccccc3c2=O)c1	17%
C=CCOC(=O)C1=C(C)NC2(O)c3ccccc3C(=O)C12O (stereo unspecified)	-9%
CCC(C)NC(=O)C1(C)CCC(=O)N1Cc1ccccc1OC (stereo unspecified)	-4%
O=c1[nH]c2cc3c(cc2cc1C(c1nnnn1C1CCCCC1)N1CCSCC1)OCCO3 (stereo unspecified)	40%
CCCn1c(=O)c2[nH]c(-c3ccc(S(=O)(=O)O)cc3)nc2n(CCC)c1=O	6%
COc1ccc(CNc2cc(C)ccc2C)c(OC)c1OC	33%
CCNc1nc(SCCOc2ccccc2)nc(N(C)C)n1	12%
CCOC(=O)C(C)n1cnc2sc3c(c2c1=O)CCC3 (stereo unspecified)	0%
O=C(Nc1ccccc1)N1CCCC(c2nc(-c3cccs3)no2)C1 (stereo unspecified)	-2%
O=C(Nc1ccc2c(c1)OCO2)c1noc2c1CCCCC2	5%
Cc1cccc(CNc2ccnc(-c3ccccc3Cl)n2)c1	2%
COC(=O)c1ccc(C2C3=C(Nc4nnnn42)c2ccccc2OC3)cc1 (stereo unspecified)	10%
CCCn1c(SCC(=O)NC2CCCCC2)nnc1-c1ccncc1	10%
COc1ccc(C(NC(=O)c2ccco2)c2ccc(OC)c(OC)c2)cc1OC	30%
O=C(CSc1nnnn1Cc1ccccc1)c1ccccc1	-6%
CCOC(=O)C(C)Sc1nc(-c2ccc(OC)cc2)nc2c1c(=O)n(C)c(=O)n2C (stereo unspecified)	13%
COc1ccc(C(=O)CSc2nnc(COc3ccccc3)n2Cc2ccco2)cc1	37%
CCOC(=O)C(C(=O)OCC)C(C)C#CCN1CCCCC1 (stereo unspecified)	1%

Carrying on:
SMILES	AmpC nodet inh
Cc1nc(NCc2ccccc2)c2nc(-c3ccccc3)n(CC(C)(C)CN(C)C)c2n1	112%
CCN1C(=O)CC(C(=O)Nc2ccc(F)cc2)SC1=Nc1ccc2c(c1)OCO2 (stereo unspecified)	16%
Cc1ccc(Nc2nnc(SCc3cc(=O)n4ccsc4n3)s2)c(C)c1	22%
Brc1ccccc1-c1nnc2sc(-c3ccc4c(c3)OCCO4)nn12	17%
N#Cc1ccccc1NC(=O)c1ccc(-c2ccccc2Cl)o1	-25%
O=C(CSc1nc2c(sc3ccccc32)c(=O)n1CCO)NCC1CCCO1 (stereo unspecified)	25%
Cn1c(=O)cc(SCC(=O)Nc2cccnc2)c2ccccc21	16%
Cc1ccc(CS(=O)(=O)CCC(=O)NCc2cccs2)cc1	6%
COc1ccc2nc(NC(=O)CN(c3ccc(C)cc3)S(=O)(=O)c3c(C)nn(C)c3C)sc2c1	76%
Cn1c(=O)[nH]c(=O)c2c1nc(NC1CCCCC1)n2CC(=O)NC1CCCCC1	-4%
COC(=O)CSc1nnc(CNC(=O)c2ccccc2OC)n1C	-4%
Cc1ccc(Nc2nc(C)c(CCC(C)C)c(=O)[nH]2)cc1	6%
Cc1occc(=O)c1O	-8%
Cc1ccc(Cc2cnc(N)s2)o1	-17%
C/C(Cl)=C\CSc1nnc2n(N)c(=O)c3ccccc3n12	7%
CCOC(=O)Cc1csc(NC(=O)CSc2nnc(C3CC3)n2C)n1	-1%
CCN(CC)CCCN=C(C)c1c(O)n(-c2ccccc2)c(=O)[nH]c1=O	-6%
CCCCNC1C(CC)C(CCC)C(C#N)(C#N)C1(C#N)C#N (stereo unspecified)	4%
CC(=O)N1CCC2(CCCN(c3ccc(-c4ccccc4)cc3)C2)CC1	150%
O=C(CCOc1ccccc1)OCC(=O)c1cc2ccccc2o1	0.63µM*
C=CCN(CC=C)S(=O)(=O)c1ccc2nc(NC(=O)C(C)C)sc2c1	-9%
O=C(CCCN1C(=O)c2ccccc2C1=O)NCCCN1CCOCC1	-13%
CCOC(=O)C1CCN(S(=O)(=O)c2cccc3nonc23)CC1	2%
N#Cc1ccc(N2CCNCC2)c(F)c1	2%
O=C(NCc1ccco1)c1cccc(F)c1	4%
CC1Cc2ccccc2N1S(=O)(=O)c1cccc(C(=O)NCCCO)c1 (stereo unspecified)	42%
c1ccc(N2CCCC3(CCNCC3)C2)nc1	13%
O=C(OCc1nnc(-c2ccccc2)o1)c1ccco1	6%
Cn1c(C(C#N)C(=O)c2sc3ccccc3c2Cl)nc2ccccc21 (stereo unspecified)	13µM*
O=C(O)C1C(C(=O)O)C(C(=O)O)C1C(=O)O (stereo unspecified)	7%[5.75 µM]
COc1ccc2ccccc2c1C1CC(=O)N2CN(C3CCCCC3)CSC2=C1C#N (stereo unspecified)	?
Cc1ccc(C(C(=O)NC2CCCC2)N(Cc2ccco2)C(=O)CCC(=O)Nc2ccccn2)cc1 (stereo unspecified)	55%
O=c1[nH]c(=O)n(Cc2ccco2)c(O)c1C=NC1CC1	-4%
COC(=O)C1=C(NC(=O)c2cccs2)CCS1	14%
COc1ccc(C2CC(=O)c3cnc(NC(=O)c4ccccc4)nc3C2)cc1OC (stereo unspecified)	4µM*[single pt active]
Cn1c(=O)c(-c2ccccc2)nc2cnc(OCc3ccccc3)nc21	12%
Cc1ccc(-c2csc(N(CC3CCCO3)C(=O)c3ccco3)n2)cc1 (stereo unspecified)	37%
OC1CC2CC[C@H](C1)N2CCCN1c2ccccc2Sc2ccc(Cl)cc21 (stereo partly specified)	13%[5.75 µM]
O=C(NC1CCCC1)C(c1cccs1)N(C(=O)c1ccco1)c1ccc2c(c1)OCCO2 (stereo unspecified)	40%
Cc1cc(-c2cc(C)c(O)c(C(C)(C)C)c2)cc(C(C)(C)C)c1O	-4%[5.75 µM]
CC1CN(Cc2nc3c(c(=O)[nH]c(=O)n3C)n2CCN2CCOCC2)CC(C)O1 (stereo unspecified)	-10%
O=C(NCC(c1cccnc1)N1CCOCC1)Nc1ccccc1 (stereo unspecified)	-11%
Cc1c(NC(=O)C2CCN(S(=O)(=O)c3ccccc3)CC2)c(=O)n(-c2ccccc2)n1C	-5%
CN(C)c1ccc(CNC(=O)CN(C)S(=O)(=O)c2cccc3cccnc23)cc1	29%
Cc1nnc(SCc2ccc(C(=O)c3ccc(Cl)cc3)o2)n1-c1ccccc1	111%
CCOC(=O)C1C(C)N=C2SCC(=O)N2C1c1cccc(Br)c1 (stereo unspecified)	2%
Cc1ccc(-n2ncc(C#N)c2/N=C/N(C)C)cc1	3%
CCn1c(=O)cc(OCC(=O)N2CCN(Cc3ccc4c(c3)OCO4)CC2)c2ccccc21	122%
CCOC(=O)Nc1c(C)n(C)n(-c2ccccc2)c1=O	4%
COc1ccc(C(CNC(=O)Cc2cc(OC)c(OC)c(OC)c2)N2CCCC2)cc1 (stereo unspecified)	-1%
COc1ccccc1C(=O)NCc1ccncc1	2%
O=C1C(Cl)=C(Nc2ccc(S(=O)(=O)Nc3ccccn3)cc2)C(=O)c2ccccc21	-4%[5.75 µM]
O=C(CN1CC(c2ccccc2)CC1=O)Nc1ccc(F)cc1 (stereo unspecified)	22%
CCC(=O)Nc1ccc(Cl)c(NC(=O)C(C)C)c1	11%
CCOc1ccc(OCC)c(NC(=O)C2CCCN(S(=O)(=O)c3c(C)n[nH]c3C)C2)c1 (stereo unspecified)	96%
CCSCCOC(=O)C1=C(C)NC(=O)NC1c1cccc(OC)c1OC (stereo unspecified)	27%
COc1ccc(-n2c(=O)c(-c3ccc(F)cc3)nc3cnc(N4CCNCC4)nc32)cc1	53%
Cc1cc(C)nc(N2CCC(C(=O)NCc3cccc(C(F)(F)F)c3)CC2)n1	2%
CCOc1ccc2[nH]c(=O)c(CN(Cc3ccco3)C(=O)c3ccc(Br)cc3)cc2c1	12%
Cc1ccc2nc(-c3ccc(SCC(=O)Nc4cc(C)on4)nc3)[nH]c2c1	-19%

Structural class, the entries above containing a cyano group
SMILES	AmpC nodet inh
Cc1noc(C)c1C(=O)N1CCC2(CCCN(Cc3ccc(C#N)cc3)C2)CC1	19%
N#Cc1ccccc1NC(=O)c1ccc(-c2ccccc2Cl)o1	-25%
CCCCNC1C(CC)C(CCC)C(C#N)(C#N)C1(C#N)C#N (stereo unspecified)	4%
N#Cc1ccc(N2CCNCC2)c(F)c1	2%
Cn1c(C(C#N)C(=O)c2sc3ccccc3c2Cl)nc2ccccc21 (stereo unspecified)	13µM*
COc1ccc2ccccc2c1C1CC(=O)N2CN(C3CCCCC3)CSC2=C1C#N (stereo unspecified)	?
Cc1ccc(-n2ncc(C#N)c2/N=C/N(C)C)cc1	3%

Next section:
SMILES	AmpC nodet inh
CC(C)C[C@H](N)c1nnc(S(=O)(=O)Cc2cccc(F)c2)o1	?
c1cncc(CNc2ncncc2-c2cccnc2)c1	4%
O=C(O)c1ccccc1C(=O)c1cccs1	-11%
Cc1c(NS(=O)(=O)CC23CCC(CC2=O)C3(C)C)c(=O)n(-c2ccccc2)n1C (stereo unspecified)	5%
Nc1nonc1-c1noc(COc2ccccc2Cl)n1	-12%
CCC(C)NC(=O)C1CCN(C(=O)N(C)C)CC1 (stereo unspecified)	-4%
Cc1nccn1CC(=O)O	-18%
c1ccc(-c2nn3c(C4COc5ccccc5O4)nnc3s2)cc1 (stereo unspecified)	22%
COc1ccc(C(=O)CSc2nnc(Cc3ccccc3)o2)cc1	-4%
CCOc1ccc(-c2nc(N)nc(C)c2-c2ccc(OC)c(OC)c2)c(O)c1	46%
Cc1cc(C(=O)COC(=O)CCc2nc3ccccc3s2)c(C)n1C	73%

3 compounds out of the list, ordered by length of the SMILES, descending.
SMILES	AmpC nodet inh
CC(C)C[C@H](N)c1nnc(S(=O)(=O)Cc2cccc(F)c2)o1	?
COc1ccc(C(=O)CSc2nnc(Cc3ccccc3)o2)cc1	-4%
O=C(O)c1ccccc1C(=O)c1cccs1	-11%

Laid out differently: results already given
SMILES,AmpC nodet inh
CCCn1c(SCC(=O)NC2CCCCC2)nnc1-c1ccncc1,10%
COc1ccc(C(NC(=O)c2ccco2)c2ccc(OC)c(OC)c2)cc1OC,30%
O=C(CSc1nnnn1Cc1ccccc1)c1ccccc1,-6%

Assay outcomes (PubChem BioAssay)
